HSV replic up: increases HSV replication in cells; 0.005% of 220,000 active; maximum fold increase; HSV replication augmentation in cells, fold increase;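 active means peak rise of 1.5-fold or more in the series; tested in PC3 cells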;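 further: first round at 10 µM; read as green reporter fluorescence; hits show the peak of a series up to 25 µM; 1 = signal of infected wells without compound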
INS promoter inh: TRM-6 insulin promoter activity inhibition. TRM-6 cells (human fetal islet line), insulin promoter-eGFP reporter, imaging; reporter expression induced with tamoxifen. inhibition, % at 2 µM. 0.9% of 130,000 active. AID 1273;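 active means inhibition above the mean plus 3 SD, with well images judged a real hit on visual review, cut at about 60% in these data, passing the limit was not always enough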
RGS16-Gao: modulates binding between human RGS16 and Galphao; 0.38% of 220,000 active; binding response (% of control), % at 10 µM; AID 1441; O15492+P09471; bead-based flow cytometry RGS16-Galphao binding, fluorescence; actives lie on both sides;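 active means below 25% or above 175%, edge rows of some plates excepted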;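 further: Galphao activated by GDP with aluminum fluoride before binding; 100% = wells without compound and 0% = beads without RGS; some results beyond the cut were filed as inactive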
Target sequence (O15492 whole entry, looked up): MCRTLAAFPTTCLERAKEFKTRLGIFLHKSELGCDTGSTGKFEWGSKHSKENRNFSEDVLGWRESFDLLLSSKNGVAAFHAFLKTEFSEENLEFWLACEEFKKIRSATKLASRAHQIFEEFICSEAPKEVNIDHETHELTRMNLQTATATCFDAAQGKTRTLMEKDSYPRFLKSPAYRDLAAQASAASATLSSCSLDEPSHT
Target sequence (P09471 whole entry, looked up): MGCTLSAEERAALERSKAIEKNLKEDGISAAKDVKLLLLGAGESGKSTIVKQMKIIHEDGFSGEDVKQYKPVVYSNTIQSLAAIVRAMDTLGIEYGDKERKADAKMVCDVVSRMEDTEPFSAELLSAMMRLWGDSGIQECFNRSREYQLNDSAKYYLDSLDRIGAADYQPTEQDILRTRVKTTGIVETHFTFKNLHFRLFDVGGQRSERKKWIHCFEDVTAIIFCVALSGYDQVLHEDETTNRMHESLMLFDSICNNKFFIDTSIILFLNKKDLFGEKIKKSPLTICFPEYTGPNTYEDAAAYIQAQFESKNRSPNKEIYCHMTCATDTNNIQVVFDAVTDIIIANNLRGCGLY
PKD1 inh: PKD1 (human) kinase inhibition | inhibition, %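 (about 10 µM by stock and volumes)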 | PKD1 kinase fluorescence polarization assay | 0.056% of 200,000 active;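 active means inhibition of 50% or more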;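 further: controls were vehicle for no effect and a reference inhibitor for full effect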
GALR2 agonist: activates the human galanin receptor 2 | O43603 | GALR2-expressing cells, agonist activation read-out | activation, %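 (tested at 5 µM)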 | 0.48% of 140,000 active | AID 803;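 active means above mean plus 3 SD of all compounds, about 5% in these data, not always enough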;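 further: 0% = vehicle buffer wells and 100% = reference agonist at full effect; tested in CHO reporter cells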
Target sequence (O43603 whole entry, looked up): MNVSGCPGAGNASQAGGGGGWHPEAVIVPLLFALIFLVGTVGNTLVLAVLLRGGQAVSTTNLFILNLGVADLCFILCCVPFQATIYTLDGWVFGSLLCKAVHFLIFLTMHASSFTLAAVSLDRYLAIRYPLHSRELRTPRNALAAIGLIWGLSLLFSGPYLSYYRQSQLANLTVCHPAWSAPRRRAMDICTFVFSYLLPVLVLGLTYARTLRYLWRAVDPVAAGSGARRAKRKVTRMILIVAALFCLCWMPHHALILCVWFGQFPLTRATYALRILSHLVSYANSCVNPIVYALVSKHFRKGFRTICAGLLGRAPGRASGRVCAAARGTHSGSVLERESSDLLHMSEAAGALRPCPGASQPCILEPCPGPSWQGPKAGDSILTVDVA
INS promoter inh cell count: also measured in INS promoter inh; calls as there; normalized cell count, %; measured here: cell count, toxicity; reference of the scale not given here;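 cells exposed to compound for 48 h; stained nuclei by imaging scaled within each plate; lower means fewer cells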
HSV replic up primary fold: also measured in HSV replic up; calls as there; fold increase; compound at 10 µM; measured here: primary screen fold increase 10 uM; tested in PC3 cells;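 GFP signal in the first replicate; 1 = infected wells without compound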
An asterisk follows results filed as active; i = inactive; / = not tested or not shown.

No.	compound	HSV replic up	PKD1 inh	HSV replic up primary fold	INS promoter inh cell count	INS promoter inh	RGS16-Gao	GALR2 agonist
1	COc1cc2c(cc1OC)C(c1ccsc1)CC(=O)N2 (stereo not given)	i	3	1.1	80	-24	105	0.2
2	CCOC(=O)c1ccc([N+](=O)[O-])cc1NC(C)=O	i	-1	1.1	82	43	89	2.8
3	CCNC(=O)C1CC(=O)N(Cc2ccc(F)cc2)C(=Nc2ccc(OC)cc2)S1 (stereo not given)	i	6	1	/	/	102	-1.7
4	COc1ccc(-c2nnc(SCc3nnc(-c4ccccc4)o3)n2C)cc1OC	i	-2	0.82	/	/	108	-0.3
5	COC(C[C@@H](O)CC(=O)[C@@H](C)OCc1ccccc1)OC	i	/	1	/	/	96	/
6	O=C1CSc2ccccc2N1Cc1ccc(F)cc1	i	-5	0.95	/	/	101	-1.5
7	c1ccc(CCn2nnnc2C(c2cccnc2)N2CCOCC2)cc1 (stereo not given)	i	2	1	/	/	106	/
8	CCCN(CCC)C(=O)COc1cc(=O)n(CC)c2ccccc12	i	-8	0.92	/	/	105	-1.4
9	CSc1cc(-c2ccc(Cl)cc2)c(C(=O)NC(C)C)s1	i	5	0.96	55	25	99	-0.6
10	COC(=O)CC1(C(=O)OC)Oc2ccc(Br)cc2C(=O)N1c1cc(Cl)cc(Cl)c1 (stereo not given)	i	/	0.87	/	/	89	/
11	NC(=O)c1cccnc1OCC(F)(F)F	i	/	0.93	/	/	103	/
12	COc1cc(-c2nc3ccccn3c2/N=C/c2cccc(F)c2)ccc1O	i	-2	0.86	111	-7	102	/
13	Cc1cc(=O)oc(C)c1C(=O)NCc1ccc(F)cc1	i	6	0.94	89	9	93	-0.6
14	O=C(c1ccccc1F)N(Cc1ccccc1)C1CCS(=O)(=O)C1 (stereo not given)	i	-3	0.99	76	-47	87	-0.1
15	COC(=O)CSc1nnc(CNC(=O)c2ccc(OC)c(OC)c2)n1C	i	2	1.1	/	/	104	/
16	CCC(C)(C)NC(=O)Cn1c(-c2ccc(C)cc2)noc1=O	i	/	0.89	/	/	104	/
17	CCOc1cc2c(cc1C=O)OC(C)C2 (stereo not given)	i	-10	1.1	/	/	102	/
18	Cc1cc(OCc2cc3c(cc2Cl)OCO3)c2c(C)cc(=O)oc2c1	i	-1	0.98	/	/	100	0.1
19	Cc1sc2ncnc(SCC(=O)NC(C)(C)C)c2c1C	i	2	0.92	114	-50	101	/
20	COCCNC(=S)N1CCN(C/C=C/c2ccccc2)CC1	i	4	1.1	/	/	96	/
21	CSc1ncccc1C(=O)OCC(=O)NC(=O)NCCC(C)C	i	-10	0.78	/	/	105	-1.3
22	Cc1cccc(Cn2c(C(=O)OC(C)C)cc3c2ccn3C)c1	i	-10	0.94	95	65	77	-3.6
23	COc1ccc(-c2cc(C(=O)Nc3ccccc3SC)no2)cc1	i	-14	0.79	109	38	93	-3.0
24	CCNC(=O)NC(=O)C(C)OC(=O)CCCSc1nc2ccccc2s1 (stereo not given)	i	0	1	106	21	38	-0.2
25	CCN(CC)S(=O)(=O)c1ccc2c(c1)nc(CCC(=O)Nc1ccc(N3CCOCC3)cc1)n2C	i	-4	0.86	50	-105	98	/

The list continues.
No.	compound	HSV replic up	PKD1 inh	HSV replic up primary fold	INS promoter inh cell count	INS promoter inh	RGS16-Gao	GALR2 agonist
26	Cc1cccc(Cn2cnc3c(N)c(C)c(C)cc32)c1	i	6	0.91	162	27	97	/
27	COc1cccc(-c2cc3c(-n4cccc4)ncnc3o2)c1	i	-4	0.95	154	-49	104	-1.6
28	O=[N+]([O-])c1cc(-c2nnc(Nc3ccccc3)c3ccccc23)ccc1N1CCOCC1	i	1	0.77	/	/	101	0.7
29	CCCc1[nH]n(-c2ccc(F)cc2)c(=O)c1C=Nc1cccc(F)c1	i	-7	0.59	79	57	94	-1.1
30	O=C(Cn1cc(C(=O)c2ccco2)c2ccccc21)NC1CCCCC1	i	-2	0.86	101	23	95	/
31	CCOc1cc2[nH]c(=O)n(CCCC(=O)NCc3ccc(OC)cc3)c(=O)c2cc1OCC	i	-12	0.99	82	-34	94	-1.3
32	CC(=O)/C(=N/Nc1ccc(C)cc1)Sc1nnc(CCc2ccccc2)n1-c1ccccc1	i	6	0.92	153	0	98	-0.8
33	CC(O)[C@@H](C(=O)N1CCNCC1)n1cc(CCCCN)nn1 (stereo not given in full)	i	-3	1.1	/	/	99	/
34	C(=N\Nc1ccccn1)/c1c[nH]c2ccccc12	i	/	0.69	/	/	103	/
35	COc1cccc(NC(=O)C(OC(=O)/C=C/c2ccc3c(c2)OCO3)c2ccccc2)c1 (stereo not given)	i	-4	0.91	99	-16	97	-2.0
36	O=C(CN(C(=O)CNS(=O)(=O)c1ccccc1)c1ccc2c(c1)OCCO2)NCc1ccco1	i	-12	0.99	/	/	99	-2.2
37	Cn1c(S(=O)(=O)O)nc2ccccc21	i	/	0.98	/	/	101	/
38	COc1ccc(C(=O)N2CCCC(c3ccccc3)=N2)cc1	/	-12	/	128	-29	111	/
39	O=C(CSc1nc2ccccc2s1)NCCOc1ccc(Cl)cc1	i	-5	1.1	/	/	92	-3.0
40	c1ccc(-c2noc(-c3cccs3)n2)nc1	i	12	0.9	60	-65	175	-1.8
41	O=C(Nc1cccc(C(F)(F)F)c1)c1cc(-c2ccc(F)cc2)on1	i	-3	0.79	85	12	93	8.6
42	COc1ccc(OCC(O)Cn2c(=N)n(Cc3ccccc3)c3ccccc32)cc1 (stereo not given)	i	4	0.6	/	/	101	-2.2
43	Cc1cnc(C(=O)OCC(=O)NC(C)CCc2ccccc2)cn1 (stereo not given)	i	3	1	107	18	115	/
44	COc1ccc(S(=O)(=O)N2CCCC(C(=O)NCc3ccccn3)C2)cc1 (stereo not given)	i	-3	1	21	-27	84	-2.8
45	O=C(Nc1cc(S(=O)(=O)N2CCOCC2)ccc1O)c1ccc(NS(=O)(=O)c2ccc(Cl)s2)cc1	i	1	0.93	131	32	104	-1.1
46	CC1CN(C(NC(=O)C(C)(C)C)C(Cl)(Cl)Cl)CC(C)O1 (stereo not given)	i	-16	0.96	132	3	85	-2.4
47	Cc1ccc(N2C(=O)c3ccc(C(=O)N4CCOCC4)cc3C2=O)cc1C	i	-7	0.98	/	/	46	0.6
48	CC(=O)C1=C(C)N(Cc2ccco2)C(=O)C1(NC(=O)C1CCCCC1)C(F)(F)F (stereo not given)	i	-9	0.95	174	-31	100	-0.4
49	CCN(CC)CCCNC(=O)C(C)Sc1nc(-c2ccccc2)cc(C(F)(F)F)n1 (stereo not given)	i	/	0.87	/	/	100	/
50	CC(C)(C)C1CCC(OC(=O)CN2CCCCC2)CC1 (stereo not given)	i	/	1	/	/	98	/

(next part)
No.	compound	HSV replic up	PKD1 inh	HSV replic up primary fold	INS promoter inh cell count	INS promoter inh	RGS16-Gao	GALR2 agonist
51	CC(C)NS(=O)(=O)c1ccc(OCC(=O)Nc2ccc(F)cc2)cc1	i	-1	1	/	/	104	/
52	CCN(Cc1ccccc1)C(c1cccs1)c1nnnn1C1CCCCC1 (stereo not given)	i	-5	1.1	115	19	115	-1.7
53	COC(=O)c1c(NC(=O)CN2CCCC(C)C2)c2c(C)cccc2n1C (stereo not given)	i	-3	1.1	/	/	126	-0.8
54	Cc1cc([N+](=O)[O-])cnc1NC(C)c1ccccc1 (stereo not given)	i	-8	0.85	46	34	95	-1.3
55	CC1=CC(C)(C)N(C)C(=O)N1c1ccc(Cl)cc1	i	-4	1	138	11	106	-1.7
56	COC(=O)c1[nH]c2cc(OC)c(OC)cc2c1NC(=O)Oc1ccccc1	i	-9	0.9	67	23	94	-1.3
57	CC1(c2nnc(Cc3ccccc3)o2)CC(c2ccc([N+](=O)[O-])cc2)=NO1 (stereo not given)	i	/	0.85	/	/	98	/
58	Cc1cc(Cl)ccc1OCC(=O)OC(C)C(=O)N(C)C (stereo not given)	/	6	/	183	-73	105	-2.7
59	O=C(COc1ccc(Br)cc1)c1ccc2c(c1)CCCC2	i	21	0.99	106	43	97	-1.4
60	O=C(Nc1ccccc1)N1CCN(c2ccc(F)cc2)CC1	i	-3	0.98	79	20	98	-0.8
61	Cc1cccc(NC(=O)c2cc(N3CCOCC3)nc3ccccc23)c1	i	2	0.84	105	-41	99	-0.3
62	CN1CCc2nc3sc(C(=O)C45CC6CC(CC(C6)C4)C5)c(N)c3cc2C1	/	-2	/	/	/	100	-0.4
63	CS(=O)(=O)N(CC(=O)NCc1ccccn1)Cc1ccc(Cl)cc1	i	-1	1.1	89	-3	107	-4.7
64	Cc1ccc([N+](=O)[O-])cc1-c1ccc(/C=N\n2nnnc2N)o1	i	-6	0.82	125	11	101	3.7
65	COC(=O)c1ccc(NC(=O)C(=O)NCC2CCCO2)cc1 (stereo not given)	i	-10	0.97	70	28	127	-1.3
66	Cc1nn(Cc2ccccc2)c2c1C(c1cccc(Cl)c1)C(C#N)=C(N)O2 (stereo not given)	i	-1	0.97	103	52	92	-2.1
67	NS(=O)(=O)c1ccc(NC(=O)COC(=O)c2cnc(Cl)c(Cl)c2)cc1	i	/	0.91	/	/	103	/
68	O=C(COC(=O)c1ccc(O)cc1)Nc1ccc(Cl)cc1	i	5	0.92	/	/	102	/
69	Cn1nc(C(F)(F)F)cc1C(=O)NC1CCCCCC1	i	-2	0.89	56	24	99	-5.3
70	O=C(NCc1n[nH]c(=S)n1-c1ccc(F)cc1)c1ccc(S(=O)(=O)N2CCCC2)cc1	i	1	1	87	32	99	-2.6
71	COc1ccc(-c2c(C#N)c(N)nc3sc(C(=O)c4ccccc4)c(N)c23)cc1	i	1	0.92	163	41	108	1.1
72	O=C(Nc1ccccc1)Nc1ccc(F)cc1F	i	-4	1	/	/	70	/
73	CCc1ccc(OCC(=O)Nc2ncc3c(n2)CC(C)(C)CC3=O)cc1	i	-8	1	/	/	87	-2.4
74	CCC(=O)c1ccc(OCC(O)CN(CCc2ccccc2)Cc2ccccc2)cc1 (stereo not given)	i	8	0.96	/	/	103	-2.2
75	CCC(CC)NC(=O)/C=C/c1ccccc1Cl	i	-8	0.97	57	-19	101	-1.1

The list continues:
No.	compound	HSV replic up	PKD1 inh	HSV replic up primary fold	INS promoter inh cell count	INS promoter inh	RGS16-Gao	GALR2 agonist
76	COC(=O)Cc1[nH]n(-c2nc3ccccc3s2)c(=O)c1C(C)=O	i	-4	0.99	192	18	102	0.3
77	Cc1ccc(S(=O)(=O)Nc2ccc(Oc3cccnc3)nc2)cc1	i	/	1.1	/	/	96	/
78	CN(C(=O)CSc1nnc(-c2cccc(F)c2)n1N)C1CCS(=O)(=O)C1 (stereo not given)	i	7	1	/	/	97	/
79	O=C(N/N=C\c1ccccc1OCc1ccccc1)c1ccco1	i	1	0.88	/	/	100	0.7
80	COc1ccc(-c2nc3cc(C)ccn3c2NCc2ccc3c(c2)OCO3)cc1	i	3	0.83	/	/	103	/
81	CCOc1cc(/C=N/n2cnnc2)ccc1OC(=O)c1cccc([N+](=O)[O-])c1	i	8	1	62	-15	100	-0.8

A second format for some results above.
The line under a structure holds: HSV replic up | PKD1 inh | HSV replic up primary fold | INS promoter inh cell count | INS promoter inh | RGS16-Gao | GALR2 agonist
(69) Cn1nc(C(F)(F)F)cc1C(=O)NC1CCCCCC1
→ i | -2 | 0.89 | 56 | 24 | 99 | -5.3
(70) O=C(NCc1n[nH]c(=S)n1-c1ccc(F)cc1)c1ccc(S(=O)(=O)N2CCCC2)cc1
→ i | 1 | 1 | 87 | 32 | 99 | -2.6
(71) COc1ccc(-c2c(C#N)c(N)nc3sc(C(=O)c4ccccc4)c(N)c23)cc1
→ i | 1 | 0.92 | 163 | 41 | 108 | 1.1
(72) O=C(Nc1ccccc1)Nc1ccc(F)cc1F
→ i | -4 | 1 | / | / | 70 | /
(73) CCc1ccc(OCC(=O)Nc2ncc3c(n2)CC(C)(C)CC3=O)cc1
→ i | -8 | 1 | / | / | 87 | -2.4
(74) CCC(=O)c1ccc(OCC(O)CN(CCc2ccccc2)Cc2ccccc2)cc1 (stereo not given)
→ i | 8 | 0.96 | / | / | 103 | -2.2
(75) CCC(CC)NC(=O)/C=C/c1ccccc1Cl
→ i | -8 | 0.97 | 57 | -19 | 101 | -1.1
(76) COC(=O)Cc1[nH]n(-c2nc3ccccc3s2)c(=O)c1C(C)=O
→ i | -4 | 0.99 | 192 | 18 | 102 | 0.3
(77) Cc1ccc(S(=O)(=O)Nc2ccc(Oc3cccnc3)nc2)cc1
→ i | / | 1.1 | / | / | 96 | /
(78) CN(C(=O)CSc1nnc(-c2cccc(F)c2)n1N)C1CCS(=O)(=O)C1 (stereo not given)
→ i | 7 | 1 | / | / | 97 | /
(79) O=C(N/N=C\c1ccccc1OCc1ccccc1)c1ccco1
→ i | 1 | 0.88 | / | / | 100 | 0.7
(80) COc1ccc(-c2nc3cc(C)ccn3c2NCc2ccc3c(c2)OCO3)cc1
→ i | 3 | 0.83 | / | / | 103 | /
(81) CCOc1cc(/C=N/n2cnnc2)ccc1OC(=O)c1cccc([N+](=O)[O-])c1
→ i | 8 | 1 | 62 | -15 | 100 | -0.8
